# High-throughput results as filed in PubChem.
# MenB inh = inhibitors of Mycobacterium tuberculosis MenB enzyme. inhibition, %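 (about 12 µg/mL by stock and volumes)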. P9WNP5. hit rate 0.43% among 100,000. MenB enzyme assay, absorbance read-out; some hits fall short of the stated cut;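 active = mean of two replicates above 30%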;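 also: 0% = no compound and 100% = wells with inactive enzyme; the first replicate is given; strong numbers were not always called active; inactives centre near -10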
# MbtI inh = blocks the Mycobacterium tuberculosis siderophore enzyme MbtI | P9WFX0 | purified MbtI enzyme, fluorescence intensity read-out | inhibition, %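 (about 17 µg/mL by stock and volumes)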 | hit rate 0.89% among 100,000 | AID 493033;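 active = above 50% in both replicates, above 80% if mildly self-fluorescent; inactive = the rest, strongly fluorescent compounds included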;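 also: 0% = mean of negative and 100% = mean of positive controls; one replicate is shown; some compounds called inactive have numbers as strong as hits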
# Target sequence (P9WFX0 whole entry, looked up): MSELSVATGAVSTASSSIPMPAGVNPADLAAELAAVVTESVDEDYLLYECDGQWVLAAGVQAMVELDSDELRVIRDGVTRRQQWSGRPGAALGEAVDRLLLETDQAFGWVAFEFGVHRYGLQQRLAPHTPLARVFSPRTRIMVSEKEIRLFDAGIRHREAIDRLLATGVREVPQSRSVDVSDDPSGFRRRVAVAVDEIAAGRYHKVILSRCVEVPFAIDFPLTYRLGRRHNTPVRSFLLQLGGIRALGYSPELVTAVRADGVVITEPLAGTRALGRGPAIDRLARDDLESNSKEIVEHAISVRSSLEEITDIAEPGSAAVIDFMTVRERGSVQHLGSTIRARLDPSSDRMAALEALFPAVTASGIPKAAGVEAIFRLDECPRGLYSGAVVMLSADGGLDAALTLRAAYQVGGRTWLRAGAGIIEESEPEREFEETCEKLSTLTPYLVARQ
# PV pol inh = inhibitors of poliovirus RNA polymerase binding and polymerization; P03300; poliovirus polymerase elongation, fluorescence polarization; stronger effect = lower value; % elongation, % (compound at 16.7 µg/mL); hit rate 0.66% among 150,000; AID 588519; in the data active = % elongation below about 90%; also: some results filed as inactive read as strong as hits
# Target sequence (P03300 1749-2209 limits assumed): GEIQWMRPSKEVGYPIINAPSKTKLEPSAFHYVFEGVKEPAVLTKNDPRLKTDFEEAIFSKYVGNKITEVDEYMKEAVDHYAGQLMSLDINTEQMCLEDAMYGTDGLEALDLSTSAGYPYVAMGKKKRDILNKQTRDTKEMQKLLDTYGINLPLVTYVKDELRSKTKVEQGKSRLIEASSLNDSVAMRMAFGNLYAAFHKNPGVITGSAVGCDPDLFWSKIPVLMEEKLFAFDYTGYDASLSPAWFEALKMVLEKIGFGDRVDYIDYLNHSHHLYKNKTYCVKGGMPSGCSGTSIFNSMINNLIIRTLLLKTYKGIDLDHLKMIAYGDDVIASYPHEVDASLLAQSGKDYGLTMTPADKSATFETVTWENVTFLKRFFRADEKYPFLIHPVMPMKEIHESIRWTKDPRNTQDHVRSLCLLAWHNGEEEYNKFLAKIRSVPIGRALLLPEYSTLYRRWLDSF
# PV pol inh intensity = recorded beside PV pol inh, whose call it bears; % elongation; measured here: total intensity read-out; formula for this scale not given here;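 total fluorescence in place of polarization; lower means less elongation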
# * hit, by the source's call; i = inactive; . = not tested or not shown; & = joins results of further samples.
SMILES,MenB inh,MbtI inh,PV pol inh,PV pol inh intensity
O=C(NCC1(c2ccccc2)CCCC1)c1cc2c(s1)-c1ccccc1S(=O)(=O)C2,-2,-17,101,105
CSc1ccc(C=C2C(=O)c3ccccc3C2=O)cc1,.,24,103,104
COc1ccccc1NC(=O)CSc1nc2n[nH]c(C)c2c(=N)n1-c1ccc(C)c(Cl)c1,-11,109,103,104
CCn1nnc2c(Nc3ccc4c(c3)OCO4)ncnc21,-23,121,106,112
C=CCN(CC=C)S(=O)(=O)c1ccc(N)cc1,5,-4,99,101
Nc1nc(SCc2cc(=O)oc3ccc4ccccc4c23)n[nH]1,-1,103,102,106
COc1cc(N)c(Cl)cc1C(=O)NC1CCN(Cc2ccccc2)CC1,1&-1,-8&-7,100&99,100&103
NC(=O)NOCc1ccccc1,-25,-5,102,106
CCOc1ccc(OCCNC(=S)NC)cc1,-29,2,97,98
O=C(CSC1=NCCS1)NC1CC1,.,-3,103,104
Oc1ccc(CNc2ccccc2O)cc1,-5,92*,101,104
O=c1[nH]c2ccc(N=Cc3ccc(C#Cc4ccccc4)cc3)cc2o1,-6,.,103,107
CCN(CC)c1ccc2c(=O)[nH][nH]c(=O)c2c1,-8,.,100,106
CN1C(=O)c2cccc3c(S(=O)(=O)N(C)C)ccc1c23,-29,39,103,100
Cc1nnc2n1N=CC=C(c1ccccc1)S2,-3,.,100,105
CCCc1nc2ccccc2c(C(=O)OCC(N)=O)c1CC,.,0,102,104
CCN(CC)Cc1cc(C(=O)O)co1,32*,0,102,101
O=C(CC1SC(=Nc2ccccc2)N(CCCCO)C1=O)NCc1ccccc1 (stereo not drawn),-38,-10,103,102
CSc1nc2ccc(N=Cc3ccc(Sc4nnnn4-c4ccccc4)o3)cc2s1,-6,.,119,128
Cc1nnc(SCC(=O)c2cc(C)n(CCC(C)C)c2C)n(N)c1=O,-6,6,104,101
NC(=O)COC(=O)c1cc(-c2cccs2)nc2ccccc12,-22,102,105,108
CCCCN1N=C(C)CC1=O,-59,.,110,108
C=CCC(NCc1ccco1)c1ccc(N(C)C)cc1 (stereo not drawn),-16,.,105,107
Cc1ccc(-n2c(C)csc2=N)cc1,.,70,99,103
COC(=O)c1ccc(OCC(=O)/C(C#N)=C(\C)N)cc1,-18,10,108,114
SMILES,MenB inh,MbtI inh,PV pol inh,PV pol inh intensity
CN(C)c1nc(Cl)nc(NCCCC(=O)O)n1,-25,0,102,102
O=C(O)c1cc2ccccc2[nH]c1=O,18,68,99,99
O=C(O)c1cc(-c2ccc(F)cc2)on1,47*,.,98,104
O=C(O)CCC(=O)N1N=C(c2ccccc2)CC1c1ccccc1F (stereo not drawn),-20,5,101,95
Cc1cc(NC(=O)Cn2cnc3c(oc4ccccc43)c2=O)no1,-1,10,99,100
S=C1N(CN2CCOCC2)CCN1CN1CCOCC1,5,-25,100,102
CCCn1c(=NC(=O)c2ccccc2)c(C#N)cc2c(=O)n3cccc(C)c3nc21,-15,24,102,104
N#Cc1oc2ccccc2c1NC(=O)CSc1nnc(-c2ccccc2)n1Cc1ccco1,39*,84,.,.
COC(=O)Cc1csc(Nc2ccccc2)n1,-12,6,101,109
N#CCc1nc(C23CC4CC(CC(C4)C2)C3)cs1,-3,-1,103,106
COc1ccc(-c2nnc(SCC(C)C)o2)cc1,-6,0,101,108
CC1(C)CC2(CCO1)OC(=O)CC2C(=O)NCc1ccccc1 (stereo not drawn),2,0,103,101
CN(C)c1ccc(C=NCC2(O)CCOC(C)(C)C2)cc1 (stereo not drawn),-7,6,103,103
O=C(O)CC(c1ccc(F)cc1)N1Cc2ccccc2C1=O (stereo not drawn),-11,1,100,102
Nc1nc(CNS(=O)(=O)c2ccccc2)nn1S(=O)(=O)c1ccccc1,-15,1,102,106
Cc1ccc2oc3nc(N)c(-c4ccc(Cl)cc4)cc3c(=O)c2c1,-5,.,114,129
Cc1cc(OCC(=O)Nc2ccc3c(c2)OCCO3)cc(C)c1Cl,-46,-9,103,103
CCOc1ccccc1N(C)C(=O)c1cn(C)c(=O)c2ccccc12,-17,12,101,99
CCn1c(=O)c(C(=O)CSc2nnc3ccccn23)c(N)n(Cc2ccccc2)c1=O,-10,4,101,99
CN(c1ccccc1C(=O)O)S(=O)(=O)c1ccc(F)cc1,0,-17,101,101
COc1c(Br)cc(Br)c2c1OCCO2,-14,-3,102,100
FC(F)(F)Oc1ccc(Nc2n[nH]c(=S)s2)cc1,-56,15,101,94
N#Cc1ccc(Nc2ccccc2)c(N)c1,-10,i,101,103
OC(c1cccc(Cl)c1)(c1cccc(Cl)c1)C1CN2CCC1CC2 (stereo not drawn),-7,.,109,113
CCCc1noc2c1C1=NNC(=O)C1C(C)(C)C2 (stereo not drawn),3,-2,101,102
SMILES,MenB inh,MbtI inh,PV pol inh,PV pol inh intensity
CCOc1cc(S(=O)(=O)N2CCC(N3CCOCC3)CC2)c(OCC)cc1-n1cnnn1,19,109,101,103
CC(C)(CN1CCN(Cc2ccccc2)CC1)NS(=O)(=O)c1ccccc1,-20,2,100,107
CCCS(=O)(=O)c1cnc(C2COc3ccccc3O2)nc1N (stereo not drawn),0,-5,107,113
O=C(OCc1cc(=O)n2ccsc2n1)C(O)(c1ccccc1)c1ccccc1,-20,-17,98,111
O=C(O)CCn1cc(C=C2C(=O)NC(=O)NC2=O)c(-c2ccc(F)cc2)n1,-18,7,99,107
Cc1cc(/N=C/c2cc(C)n(Cc3ccccc3)c2C)n(CCC#N)n1,.,0,101,98
NC(=O)N1CCC(=O)Nc2ccccc21,-26,.,102,102
CN(C)C(CNC(=O)c1cc2ccccc2cc1O)c1ccccc1 (stereo not drawn),-13,-5,94,97
COC(=O)C1=CN(C)C=C(C(=O)OC)C1c1cccc(F)c1,-27,115,103,99
CC1CC(C)CN(Cc2nc3c(c(=O)n(C)c(=O)n3C)n2CC(N)=O)C1 (stereo not drawn),1,-13,104,107
C=C(C)c1cccc(C(C)(C)NC(=O)N2CCN(c3ccc(F)cc3)CC2)c1,-9,9,102,102
CCNc1nc(F)cc(=O)[nH]1,-14,-7,102,99
COc1ccc2[nH]c(C(=O)O)c(CCC(=O)O)c2c1,-9,118,100,99
CCOC(=O)CC(C)(O)c1ccccc1 (stereo not drawn),-9,-22,100,101
O=C(CCn1c(=O)oc2ccccc21)NCCC1=CCCCC1,-26,-4,102,103
Oc1ccccc1CNc1ccc2c(c1)ncn2C1CCCCC1,-24,-51,100,100
COC(=O)c1c(COC(=O)c2ccc(Br)o2)nc2ccccc2c1C,-9,-4,101,108
COC(=O)c1ccc(Cc2ccccc2)o1,-23,-9,103,104
N#C/C(C(=O)NCCN1CCOCC1)=c1/s/c(=C/c2ccccn2)c(=O)n1-c1ccc(F)cc1,-39,-12,119,126
COCc1cc(=O)n2c([nH]c3ccccc32)c1C#N,0,.,103,132
Cc1ccc(N2C(=O)c3oc4cc(C)c(C)cc4c(=O)c3C2c2ccc(O)cc2)nc1 (stereo not drawn),-11,-2,104,106
CCn1cc(/C=C(\NC(=O)c2ccccc2Cl)C(=O)N2CCc3ccccc32)c2ccccc21,-37,8,103,103
Cc1ccc(C(C)C)cc1S(=O)(=O)Nc1ccccn1,6,46,100,103
O=C(CSc1ncc(-c2ccccc2)n1-c1ccccc1)NC1CCS(=O)(=O)C1 (stereo not drawn),-4,-3,100,105
CCOc1ccc(C(=O)OCCC2CCCN3CCCCC23)cc1 (stereo not drawn),-11,.,103,104

# Record cards, from the list above:
# C=CCN(CC=C)S(=O)(=O)c1ccc(N)cc1 is entered as MenB inh: 5; MbtI inh: -4; PV pol inh: 99; PV pol inh intensity: 101
# C=CCC(NCc1ccco1)c1ccc(N(C)C)cc1 (stereo not drawn) is entered as MenB inh: -16; MbtI inh: .; PV pol inh: 105; PV pol inh intensity: 107

# Structural class: the entries above with a thiophene ring, fused or not
SMILES,MenB inh,MbtI inh,PV pol inh,PV pol inh intensity
O=C(NCC1(c2ccccc2)CCCC1)c1cc2c(s1)-c1ccccc1S(=O)(=O)C2,-2,-17,101,105
NC(=O)COC(=O)c1cc(-c2cccs2)nc2ccccc12,-22,102,105,108

# Additional records.
SMILES,MenB inh,MbtI inh,PV pol inh,PV pol inh intensity
CC(=O)Nc1cccc(NC(C)=C(C#N)C#N)c1,-15,10,101,109
CSc1ccc(-c2nc3ncccn3c2Nc2ccccc2)cc1,-11,-11,101,110
CC(CNC(=O)CCc1nnc2ccc(N3CCCC3)nn12)c1ccccc1 (stereo not drawn),-11,1,102,103
CCN(CC)c1ccc(C(=O)N2CCCCC2C)cc1 (stereo not drawn),-9,10,109,108
O=C(c1ccc2c(c1)OCCO2)c1ccccc1Cl,-25,4,101,97
OCCN1CCN(C2=Cc3ccccc3C2)CC1,-16,1,100,102
CC(=O)N(c1ccccc1)C1(C(=O)NC2CCCC2)CCCCC1,1,3,104,98
CCC(=O)Nc1cccc(C)c1,25,-4,102,105
C[N+]12CCCCC1C(COc1ccccc1Br)CCC2 (stereo not drawn),-8,.,99,95
COc1cc2nc(SCc3ccc(C#N)cc3)n3nc(CCn4c(C)nc5ccccc54)nc3c2cc1OC,-1,-6,102,103
O=C(O)CCC(=O)Nc1cccc(-c2nn(-c3ccccc3)cc2C(=O)O)c1,-17,-3,105,106
COc1ccc(N(C)S(=O)(=O)c2cccc(C(=O)Nc3ccc(N4CCN(C)CC4)cc3C)c2)cc1,-18,9,100,92
O=C(Cn1c2c(c(-c3ccccc3)cc1=O)CCCC2)N1CCCC1,6,0,101,106
Cc1ccc(C(=O)NC2CC(C)(C)NC(C)(C)C2)cc1,-6,-4,103,103
CSc1ccc(NC(=O)C2CC(O)CN2C(=O)Nc2ccccc2)cc1 (stereo not drawn),-61,-5,106,100
OC(CNCCC1=CCCCC1)c1ccccc1 (stereo not drawn),12,8,105,95
CCN(CC)c1ccc(C2NC(=O)NC(c3cc(C)n(-c4cc(C(=O)OC)cc(C(=O)OC)c4)c3C)=C2C#N)cc1 (stereo not drawn),-1,-7,44,238
COc1cc(CNC(=O)Cn2c(=O)c3cccn3c3ccc(F)cc32)cc(OC)c1OC,15,i,102,102
COc1ccc(/C=C2\N=C(SCC(=O)NCc3ccco3)N(c3cc(C)cc(C)c3)C2=O)cc1,-80,-10,104,110
Cc1ccc(C)c(N2C(=O)CC3CS(=O)(=O)CC32)c1 (stereo not drawn),-15,.,102,109
N#CCNC(=O)Cc1ccccc1,-28,.,109,104
O=C(O)Cc1n[nH]c(=S)n1Cc1ccccc1,-10,-18,98,104
Cc1ccccc1-c1noc2ncnc(NCCCO)c12,-19,-2,100,102
S=C(N/N=C\c1ccn[nH]1)Nc1ccc(Cl)cc1,-74,4,102,101
CCOC(=O)c1sc(NC(=S)Nc2ccc(N3CCOCC3)c3nonc23)c(C(=O)OCC)c1C,-16,10,102,103

# The final 5 compounds of the section before open the next one.
SMILES,MenB inh,MbtI inh,PV pol inh,PV pol inh intensity
N#CCNC(=O)Cc1ccccc1,-28,.,109,104
O=C(O)Cc1n[nH]c(=S)n1Cc1ccccc1,-10,-18,98,104
Cc1ccccc1-c1noc2ncnc(NCCCO)c12,-19,-2,100,102
S=C(N/N=C\c1ccn[nH]1)Nc1ccc(Cl)cc1,-74,4,102,101
CCOC(=O)c1sc(NC(=S)Nc2ccc(N3CCOCC3)c3nonc23)c(C(=O)OCC)c1C,-16,10,102,103
CCCn1nnnc1NCc1cc(Cl)c(OCc2cccs2)c(OC)c1,-58,-6,104,104
O=C(O)COc1ccc(-c2nnco2)cc1,-31,-1,89*,90*
Cc1ccc(CC(C#N)Sc2nnc(Cc3ccccc3)o2)cc1 (stereo not drawn),-32,-2,101,99
CC(C)c1ccccc1NC(=O)COC(=O)c1ccc(N)cc1,.,10,103,106
Cc1cc(C)c2[nH]c(C)c(CN(C)C3CCCCC3)c(=O)c2c1,3,.,100,103
COc1ccccc1CN=C(C)c1ccccc1O,-9,6,104,102
COc1ccc(NC(=O)Cn2c(=O)n(-c3ccccc3)c(=O)c3c4c(sc32)CCCC4)cc1OC,-7,0,102,97
CCc1ccccc1NC(=O)C1CCN(S(=O)(=O)c2c(C)noc2/C=C/c2ccco2)CC1,-12,4,101,102
O=C(COC(=O)C1CCN(C(=O)c2ccc(Cl)cc2)CC1)NCc1ccco1,-7,-10,103,109
COC(=O)Nc1ncc(CN2CCC(C)CC2)s1,-2,.,106,106
CC(C)C(C#N)N1CCNCC1 (stereo not drawn),-3,10,98,100
CC1=[N+](C)c2cc(C(F)(F)F)ccc2C1(C)C,6,4,114,127
Cc1oc(N)c(S(=O)(=O)/C(C#N)=C/c2cc(Cl)cc(Cl)c2)c1C,-22,15,117,147
CCc1nn(C(C)C(=O)N(C)Cc2ccccc2)c(=O)c2cc3occc3n12 (stereo not drawn),-14,10,105,105
O=C(NC1CCCC1)C(Cc1ccccc1)n1cccc1 (stereo not drawn),-6,-10,103,106
CCCc1ccccc1OCCNC(=O)c1cc(=O)n(C)c(=O)n1C,-4,-4,102,103
OCCNC(=S)Nc1ccc(Oc2ccccc2)cc1,-6,-5,101,104
CCNC(=O)N(Cc1ccccc1)Cc1cccnc1,-25,-6,101,107
O=C1c2ccccc2S(=O)(=O)N1C(=O)c1cc(F)c(F)c(F)c1F,.,-8,100,93
